Screening results as filed in PubChem BioAssay.
Env fusion inh: blocks HIV Env-driven cell-cell fusion. HeLa-JRFL Env/CEM21 cell fusion, luciferase. 1.1% of 360,000 active. inhibition, % at 12.3 µM;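 active = mean replicate inhibition score of at least 50 and every replicate individually at or above 50; inconclusive = only one of the two criteria met; inactive = mean below 50 and not all replicates reaching 50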;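 note: 0% = plate neutral controls and 100% = maraviroc near 300 nM; one replicate is shown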
Rce1 inhib: yeast Ras-converting enzyme inhibition | yeast membranes, quenched prenylated peptide cleavage fluorescence | calls only | AID 2563 | 0.27% of 290,000 active;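 active = fall in fluorescence gain of 50% or more versus controls, with final raw signal at or below 3038400; inconclusive = same 50% fall but final raw signal above 3038400; inactive = fall in fluorescence gain under 50%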;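 note: plate controls were neutral control wells for no effect and wells lacking membranes for full effect; tested at 10 µM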
Target sequence (Q03530 whole entry, looked up): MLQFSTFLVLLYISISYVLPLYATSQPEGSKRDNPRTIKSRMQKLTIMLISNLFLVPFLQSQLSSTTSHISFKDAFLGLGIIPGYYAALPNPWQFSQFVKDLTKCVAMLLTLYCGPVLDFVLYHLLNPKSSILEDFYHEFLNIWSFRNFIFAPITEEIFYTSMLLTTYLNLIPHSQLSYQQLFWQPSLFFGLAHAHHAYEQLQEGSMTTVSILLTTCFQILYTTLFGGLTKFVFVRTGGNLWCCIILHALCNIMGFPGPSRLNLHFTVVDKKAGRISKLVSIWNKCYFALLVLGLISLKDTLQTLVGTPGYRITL
MT1-MMP act inh: blocks activation of human MT1-MMP; P50281; HT1080 RFP-PRO-GFP cells, GFP/RFP ratio fluorescence, overnight; percent of plate control window, DMSO zero; GFP/RFP ratio change, % at 20 µM; 0.061% of 360,000 active; AID 651647;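 active = GFP/RFP ratio change of at least 30% with cell ATP level not reduced by more than half and red fluorescence within 50% of control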; note: strong numbers were not always called active
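Read-out: GFP/RFP fluorescence ratio; Test system: RFP-PRO-GFP reporter HT1080 cells; Compound dosing: single-point 20 µM compound, 1% DMSO; Times: overnight compound exposure at 37 °C.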
PABP polyA inh: blocks human PABP binding to poly(A) RNA; P11940; fluorescence polarization; inhibition, % at 35 µM; 1% of 290,000 active;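 active = 50% or more with normal probe brightness, or confirmed in later tests; inconclusive = above 50% with abnormal brightness, or retests that disagree; inactive = below 50% or failed in later tests; about a fifth of its hits are not listed in these tables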;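 note: calls also rest on retests at 20 µM and on dose response follow-up; controls were probe without protein and protein plus probe with vehicle; some compounds called inactive have numbers as strong as hits; many hits fall short of the cut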
Yeast UUG start: alters start codon recognition fidelity in yeast | S. cerevisiae UUG-firefly luciferase reporter, luminescence/redox ratio | activity score, % at 18.7 µM | 0.13% of 350,000 active | AID 602363;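 active = replicate mean at a twofold rise or more, about +100% in these data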;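 note: firefly luciferase made from a UUG start codon reports start codon fidelity; reporter light over untreated wells divided by growth signal over untreated wells; some hits fall short of that in this replicate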
CSC inhib: blocks cancer stem cells | 1.1% of 300,000 active | AID 2717 | cancer stem cell-like cells viability, luminescence | inhibition, % at 7.5 µM;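 active = mean at 75% or more and at least half the replicates too; inconclusive = mean and replicates disagree; tested in HMLE shEcad cells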;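 note: 0% = median of negative and 100% = median of positive control wells; the first replicate is given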
eIF4H FP inh: inhibitors of RNA binding by human eIF4H; eIF4H fluorescence polarization binding assay; 0.94% of 290,000 active; inhibition, % at 35 µM; Q15056; AID 2012;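 active = 50% or more with normal probe brightness, or confirmed in later tests; inconclusive = above 50% with abnormal brightness, or retests that disagree; inactive = below 50% or failed in later tests; about a fifth of its hits are not listed in these tables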;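 note: calls also rest on retests at 20 µM and on dose response follow-up; 0% = protein and probe with vehicle and 100% = probe without protein; strong numbers were not always called active; many hits fall short of the cut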
MT1-MMP act inh RFP: recorded beside MT1-MMP act inh, whose call it bears; RFP signal change, %; measured here: RFP expression control read;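 0 = vehicle wells; hits needed this value within 50% of zero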
Numbers without * were called inactive; i = inactive; ? = inconclusive; · = no result given. Some of the compounds tested; count on the stated rates, not on these rows.

Results follow in this order: Env fusion inh | Rce1 inhib | MT1-MMP act inh | MT1-MMP act inh RFP | PABP polyA inh | Yeast UUG start | CSC inhib | eIF4H FP inh
[1] CC1=C(C#N)C(NC(=O)c2cccc(Cl)c2)(C(F)(F)F)C(=O)N1 (configuration not stated)
 : -5 | i | 6 | 9 | -3 | -19 | 3 | -2
[2] CN(/N=C/c1ccc(O)cc1O)c1nc(-c2ccccc2)cc(-c2ccccc2)n1
 : · | i | 3 | 3 | 12 | 0 | 89* | -3
[3] O=C(Nc1cnn(Cc2ccc(Cl)c(Cl)c2)c1)c1nc2ncccn2n1
 : · | i | 5 | 0 | -8 | -5 | 19 | -8
[4] CCCCn1c(SCC(=O)N2CCCCC2)nc2cc(S(N)(=O)=O)ccc21
 : -36 | i | -2 | 0 | 1 | -5 | · | -13
[5] O=C(c1cccs1)N1CCN(S(=O)(=O)Cc2ccccc2)CC1
 : ? | i | 1 | -1 | 2 | -15 | -16 | 2
[6] COc1ccc(NC(=O)C(C)N(c2ccc(C)cc2)S(C)(=O)=O)cc1 (configuration not stated)
 : 23 | i | -5 | 1 | -12 | 2 | -9 | -16
[7] Cc1nc2sc(C(c3ccc(Cl)cc3)N3CC(C)OC(C)C3)c(O)n2n1 (configuration not stated)
 : 23 | i | -6 | 5 | 1 | -11 | -12 | 0
[8] COc1ccc(/C=C(/C#N)S(=O)(=O)c2ccc(C)cc2)cc1
 : -26 | i | -2 | -1 | 3 | -17 | · | -4
[9] C=CCOc1c(CNc2ncn[nH]2)cccc1OCC
 : · | i | 4 | 1 | 11 | -6 | -8 | -3
[10] COc1cc(CN(C)CCc2ccccc2)ccc1OCc1ccccc1
 : ? | i | 9 | 5 | -2 | -4 | 59 | -2
[11] Cc1ccc(NS(=O)(=O)c2cccc(C(=O)N/N=C/c3c(C)nn(-c4ccccc4)c3N3CCCC3)c2)c(C)c1
 : 6 | i | -11 | -18 | 1 | · | -1 | -11
[12] O=C(/C=C/c1cccs1)Nc1nncs1
 : 2 | i | 0 | 1 | 6 | · | 16 | -7
[13] Cc1cccnc1C(c1ccc(F)cc1)N(C)C(=O)C1CCN(CCOc2ccc(Cl)cc2Cl)CC1 (configuration not stated)
 : -18 | · | -1 | -6 | · | 2 | · | ·
[14] CN(C(=O)CC1C(=O)NCCN1Cc1ccc(F)cc1Cl)C1CCCCC1 (configuration not stated)
 : 4 | i | -3 | 2 | 7 | 8 | -1 | -10
[15] O=C(N=C1N=C2C=CC=CN2Cc2ccccc21)c1ccc(S(=O)(=O)N2CCCC2)cc1
 : -36 | i | 1 | 2 | 11 | 0 | -7 | 10
[16] CCOC(=O)c1cc(N)cc([N+](=O)[O-])c1
 : -17 | i | 4 | 5 | 4 | · | -8 | -3
[17] CC1CCCCN1C(=O)CN1CCC(c2nc3ccc(Cl)cc3[nH]2)CC1 (configuration not stated)
 : -7 | i | -7 | -2 | 3 | -9 | -5 | 2
[18] COCCNC(=O)C(c1ccc(C)cc1)N(C(=O)CCC(=O)Nc1ccccn1)c1ccc(C)cc1 (configuration not stated)
 : 13 | i | -2 | 2 | 8 | 4 | · | 9
[19] N#Cc1c(/N=C/c2ccco2)oc(-c2ccccc2)c1-c1ccccc1
 : 5 | i | -10 | 0 | 10 | · | -9 | 7
[20] O=C(O)C1C2C=CC(C2)C1C(=O)Nc1ccc(C(=O)N2CCCCC2)cc1 (configuration not stated)
 : · | · | 6 | 5 | 5 | -2 | · | -2
[21] CC1(C)CC(Cc2nc(=S)[nH][nH]2)C(=O)O1 (configuration not stated)
 : 4 | i | 3 | 3 | -9 | · | -11 | -1
[22] COc1ccccc1C(OC(=O)c1cccs1)C(=O)NCC1CCCO1 (configuration not stated)
 : -35 | i | 12 | 0 | -10 | -8 | · | -5
[23] Cc1ccc(S(=O)(=O)N2CCCCC2)cc1NC(=O)C1CCC1
 : · | · | -2 | 3 | · | 0 | 1 | ·
[24] Cc1ccoc1C(=O)NCCNC(=O)c1occc1C
 : -14 | i | -1 | 3 | · | 2 | -3 | ·
[25] Cc1ccc2nc(-c3ccc(SCC(=O)Nc4nnc(C)s4)nc3)[nH]c2c1
 : · | i | 4 | 2 | 9 | · | 11 | -3
[26] Cc1ccc(S(=O)(=O)c2nc(-c3cccs3)oc2NCCCN(C)C)cc1
 : · | i | -1 | -1 | -6 | · | · | 1
[27] O=C(COC(=O)C1CCN(S(=O)(=O)c2cccc3cccnc23)CC1)c1ccc(F)cc1
 : · | i | 2 | 1 | 5 | -20 | -5 | -10
[28] O=C(NCCS(=O)(=O)N1CCN(c2ccccc2F)CC1)c1ccco1
 : -1 | i | 0 | 4 | · | · | -3 | ·
[29] Cc1ccc2c(c1)CCCN2C(=O)c1c(C)noc1C
 : -30 | i | -9 | -4 | 5 | -10 | -3 | 3
[30] Cc1ccccc1C(=O)NC(NCc1ccco1)C(Cl)(Cl)Cl (configuration not stated)
 : -40 | i | 5 | 6 | -7 | -17 | 6 | 6

Molecules shown so far with a furan ring, fused or not (four):
Results follow in this order: Env fusion inh | Rce1 inhib | MT1-MMP act inh | MT1-MMP act inh RFP | PABP polyA inh | Yeast UUG start | CSC inhib | eIF4H FP inh
[19] N#Cc1c(/N=C/c2ccco2)oc(-c2ccccc2)c1-c1ccccc1
 : 5 | i | -10 | 0 | 10 | · | -9 | 7
[24] Cc1ccoc1C(=O)NCCNC(=O)c1occc1C
 : -14 | i | -1 | 3 | · | 2 | -3 | ·
[28] O=C(NCCS(=O)(=O)N1CCN(c2ccccc2F)CC1)c1ccco1
 : -1 | i | 0 | 4 | · | · | -3 | ·
[30] Cc1ccccc1C(=O)NC(NCc1ccco1)C(Cl)(Cl)Cl (configuration not stated)
 : -40 | i | 5 | 6 | -7 | -17 | 6 | 6

Three compounds already listed, arranged by their value in Yeast UUG start, lowest first.
No.	structure	Yeast UUG start
4	CCCCn1c(SCC(=O)N2CCCCC2)nc2cc(S(N)(=O)=O)ccc21	-5
15	O=C(N=C1N=C2C=CC=CN2Cc2ccccc21)c1ccc(S(=O)(=O)N2CCCC2)cc1	0
14	CN(C(=O)CC1C(=O)NCCN1Cc1ccc(F)cc1Cl)C1CCCCC1 (configuration not stated)	8

(next part)
Results follow in this order: Env fusion inh | Rce1 inhib | MT1-MMP act inh | MT1-MMP act inh RFP | PABP polyA inh | Yeast UUG start | CSC inhib | eIF4H FP inh
[31] O=C(/C=C/c1ccc(Cl)cc1)NC(=S)Nc1ccc(N2CCOCC2)c(Cl)c1
 : -43 | i | -5 | -10 | 5 | -8 | 45 | -5
[32] NS(=O)(=O)c1ccc(CCNC(=O)C2CCN(S(=O)(=O)c3ccccc3)CC2)cc1
 : 1 | i | 5 | 3 | -7 | · | -6 | 7
[33] CC(C)c1ccc(N(CC(=O)NN=C2CCN(C)CC2)S(=O)(=O)c2ccccc2)cc1
 : -13 | i | -8 | 2 | 1 | -11 | 10 | -7
[34] COc1cc2ccccc2cc1C(=O)OCC(=O)c1c(N)n(C)c(=O)n(C)c1=O
 : 7 | · | -4 | -3 | · | -4 | -14 | ·
[35] Cc1[nH]c(C)c(S(=O)(=O)N2CCN(c3ccccc3F)CC2)c1C(=O)N1CCCCC1
 : 2 | i | 0 | 1 | 0 | 24 | -15 | -6
[36] O=c1cc(CN2CCN(S(=O)(=O)c3ccc4c(c3)OCCO4)CC2)c2ccc(O)cc2o1
 : -43 | i | -17 | -2 | 10 | -20 | 17 | 39
[37] O[C@@H]1CN(CC2CCCCC2)[C@@H](c2ccccc2)C[C@H]1n1cc(-c2ccc(F)cc2)nn1
 : -34 | · | -7 | -7 | · | -5 | · | ·
[38] CC(=O)c1ccc(NC(=O)N2CCc3ccccc3C2)cc1
 : -11 | i | 1 | -1 | -10 | · | 1 | 7
[39] Cc1ccc(Cl)c(NC(=O)COC(=O)c2nn(-c3ccccc3)cc2O)c1Cl
 : 3 | · | 3 | -2 | · | 9 | 14 | ·
[40] COCCCNC(=O)C1CCN(C(=O)c2oc3cc4sc(N(C)C)nc4cc3c2C)CC1
 : -22 | i | 1 | 3 | -8 | -18 | -25 | -2
[41] O=C(COC(=O)c1c(F)cccc1Cl)NCC1CCCCC1
 : -50 | · | 2 | -1 | · | -18 | 1 | ·
[42] Cc1ccc2cc(CN(CCCN(C)C)C(=O)NCc3ccccc3)c(=O)[nH]c2c1C
 : · | i | -11 | -8 | 1 | -1 | -11 | 3
[43] COc1ccc(N2CC(C(=O)Nc3nnc(C4CCCCC4)s3)CC2=O)cc1 (configuration not stated)
 : -2 | i | 2 | 0 | 1 | · | 6 | 3
[44] c1ccc2c(c1)oc1c(NCCN3CCOCC3)ncnc12
 : -21 | i | 5 | -2 | 7 | -14 | 4 | 2
[45] O=C(Cc1cccs1)N[C@@H]1c2ccccc2CC[C@H]1OCc1ccccc1
 : -24 | · | -7 | -4 | · | -8 | · | ·
[46] COc1cccc2c1OCC(C(=O)O)C2 (configuration not stated)
 : 1 | i | 0 | 1 | -3 | -1 | -11 | 32
[47] Cn1c(=O)c2c(nc(NC3CCCC3)n2C)n(C)c1=O
 : 4 | i | 0 | 2 | -3 | 6 | 3 | 4
[48] COc1ccc(S(=O)(=O)N2CC(O)CC2C(=O)OCC(=O)Nc2ccc(Cl)cn2)cc1 (configuration not stated)
 : · | i | 1 | 6 | -3 | 2 | -21 | -4
[49] CC(=O)CN1C(=O)NC(c2ccccc2)(c2ccccc2)C1=O
 : -7 | i | 2 | 2 | 4 | -6 | -22 | 16
[50] O=C(Nc1ccc(F)c(Cl)c1)c1cncs1
 : 5 | i | -3 | -3 | 6 | -22 | 6 | 4
[51] C#CCSc1nc(-c2cccs2)ccc1C#N
 : · | i | -3 | 2 | 6 | -4 | -2 | 0
[52] CC(C)Cc1nc(SCC(=O)N2CCOCC2)c2c(=O)n(C)c(=O)n(C)c2n1
 : · | i | -2 | 3 | -9 | 12 | -10 | 2
[53] S=C(Nc1ccccc1)N1CCCCCCC1
 : -7 | i | 1 | 4 | 1 | · | -6 | -9
[54] Cc1cc(C(=O)N2CCN(c3ccccc3)CC2)no1
 : · | i | -1 | -1 | -7 | -5 | -2 | -9
[55] CCN(CC)CCCNC(=O)c1sc2ncn(CC(=O)Nc3ccc(C)c(Cl)c3)c(=O)c2c1C
 : 4 | i | 2 | 1 | -12 | · | -3 | 3
[56] COc1cc(C2C(C#N)=C(C)NC3=C2C(=O)CC(C)(C)C3)cc(OC)c1O (configuration not stated)
 : · | i | 1 | 1 | -6 | -6 | -4 | -5

Part of the list above in another layout:
cpd | Structure | Env fusion inh | Rce1 inhib | MT1-MMP act inh | MT1-MMP act inh RFP | PABP polyA inh | Yeast UUG start | CSC inhib | eIF4H FP inh
52 | CC(C)Cc1nc(SCC(=O)N2CCOCC2)c2c(=O)n(C)c(=O)n(C)c2n1 | · | i | -2 | 3 | -9 | 12 | -10 | 2
7 | Cc1nc2sc(C(c3ccc(Cl)cc3)N3CC(C)OC(C)C3)c(O)n2n1 (configuration not stated) | 23 | i | -6 | 5 | 1 | -11 | -12 | 0
18 | COCCNC(=O)C(c1ccc(C)cc1)N(C(=O)CCC(=O)Nc1ccccn1)c1ccc(C)cc1 (configuration not stated) | 13 | i | -2 | 2 | 8 | 4 | · | 9
10 | COc1cc(CN(C)CCc2ccccc2)ccc1OCc1ccccc1 | ? | i | 9 | 5 | -2 | -4 | 59 | -2
56 | COc1cc(C2C(C#N)=C(C)NC3=C2C(=O)CC(C)(C)C3)cc(OC)c1O (configuration not stated) | · | i | 1 | 1 | -6 | -6 | -4 | -5
9 | C=CCOc1c(CNc2ncn[nH]2)cccc1OCC | · | i | 4 | 1 | 11 | -6 | -8 | -3
3 | O=C(Nc1cnn(Cc2ccc(Cl)c(Cl)c2)c1)c1nc2ncccn2n1 | · | i | 5 | 0 | -8 | -5 | 19 | -8
